Assay outcomes as filed in PubChem.
Sa helicase inh: inhibitors of S. aureus replicative helicase, primary screen, biochemical, fluorescence unwinding readout; replicative DNA helicase (DnaC/DnaB), Staphylococcus aureus; purified S. aureus helicase, fluorescence unwinding assay; about half of the hits fall short of the stated cut; inhibition, %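 (tested at about 80 µM)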; 0.05% of 120,000 active; AID 485395, 2010;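 active means both duplicates at 50% or more, or one of them with a favoured structure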;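 further: 0% = mean of negative control wells and 100% = mean of positive control wells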
MgrA DNA FP: S. aureus MgrA activity modulators, primary screen, biochemical, S. aureus Newman, fluorescence polarization. MgrA-DNA binding. inhibition, %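 (about 10 µg/mL by stock and volumes)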. 0.13% of 84,000 active;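 active means above 50% in either of two replicates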;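 further: 0% = protein plus DNA without compound and 100% = DNA alone without protein; higher means less MgrA bound to DNA so lower polarization; one replicate is shown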
Active calls of the source: *; . = not tested or not shown; & = joins results of further samples.

canonical_smiles | MgrA DNA FP | Sa helicase inh
O/N=C(\c1ccccc1)c1cc2ccccc2o1 | 1.9 | 6
O=C(Cn1c(=O)oc2ccccc21)NCc1ccco1 | -1.0 | -6
CC(C)C(NC(=O)c1ccccc1)C(=O)Nc1nc2ccc(Cl)cc2s1 (stereo unspecified) | -0.8 | 12
COc1ccc(-c2cc(C3CC3)nc(SCC(=O)O)c2C#N)cc1 | 2.2 | 25
O=C(COc1cccc(-n2cnnn2)c1)N1CCOCC1 | -2.2 | 18
O=C(CSc1nc(=O)n(CCN2CCOCC2)c2c1CCCC2)Nc1cccc(C(F)(F)F)c1 | . | -15
Cc1cc(OCC(O)CNC(C)(C)C)ccc1Cl (stereo unspecified) | -0.2 | 12
COC(=O)CC1COc2ccccc2N1C(=O)c1cccc(Cl)c1 (stereo unspecified) | -4.9 | .
O=C1CCCc2c1cc(C(=O)N1CCOCC1)c(=O)n2-c1ccccc1 | -0.7 | 0
FC(F)(F)c1nc2ccccc2nc1Cl | 3.1 | 17
O=C(NCc1csc(-c2cccs2)n1)c1ccccc1 | 0.2 | .
Cc1cc(C(=O)CN2CCCC2c2cccs2)c(C)n1-c1c(C)n(C)n(-c2ccccc2)c1=O (stereo unspecified) | . | 4
O=C(COc1cccc2c1CCN(Cc1ccccc1)C2=O)NC1CCCCC1 | . | 11
O=C(NCc1ccccn1)c1cc(-c2ccccc2O)no1 | 8.3 | 8
CC12COC3(C(=O)N4CCCCC4)CC1CCC32C (stereo unspecified) | -0.3 | 0
O=c1[nH]cccc1Br | . | 6
Cc1cc(NC(=O)CCn2c(=O)sc3ccccc32)no1 | . | -6
O=C(NC1CC1)c1cc(=O)[nH]c2ccc(Br)cc12 | . | -1
CC(C)COC(=O)c1ccc2c(c1)C1C=CCC1C(c1ccc(Cl)cc1)N2 (stereo unspecified) | 0.8 | 1
CCOC(=O)NC(=O)c1cn(Nc2ccccc2)c(=O)[nH]c1=O | . | -25
O=C(Nc1ccc(C(=O)N2CCCCC2)cc1)c1ccc(=O)[nH]c1 | 0.4 | 7
CC(SCc1ccccc1)C(=O)N1CC(=O)Nc2ccccc21 (stereo unspecified) | 0.0 | 15
COC(=O)C1C(=O)C(C(=O)/C=C/c2ccco2)C(=O)CC1(C)C (stereo unspecified) | 2.2 | 4
Cc1ccc2cc(NC(=O)c3cccc4c3OC(C)(C)C4)ccc2n1 | -2.4 | .
CC1(C)CC(=O)C(C=NCC2CCCO2)=C(O)C1 (stereo unspecified) | -0.3 | 3
O=C1CCCc2cc(S(=O)(=O)N3CCCC(C(=O)NC4CCCC4)C3)ccc2N1 (stereo unspecified) | . | 14
NC(=O)c1ccc(NC(=O)COC(=O)c2ccc(-n3cnnn3)cc2)cc1 | . | -13
CCCNc1ncccc1C(N)=O | 3.1 | -20
Nc1ccccc1OCCN1CCOCC1 | -3.1 | 9
S=c1sc2ccccc2n1CSc1ccc(Cl)cc1 | . | 12
CCCCNC(=O)c1cccc(NC2=NC3CS(=O)(=O)CC3S2)c1 (stereo unspecified) | . | 31
COc1ccc(-c2sc(C(=O)O)c(C)c2C#N)cc1 | 4.9 | .
COc1cccc(C(=O)OCC(=O)N2CCc3ccccc3C2)c1 | -1.2 | 5
N#Cc1nc(-c2cccc(O)c2)oc1N | . | 7
CSC1=N/C(=C\C=C\c2cccs2)C(=O)S1 | 1.7 | 1
CC1=[N+](CCC#N)CC(C)(C)C1 | 2.0 | -7
CCOc1ccc(NC(=O)CCCn2nc(CC)n3c(cc4occc43)c2=O)cc1 | -1.2 | 6
O=C(O)CN1C(=O)Nc2ccc(Br)cc2C1c1ccccc1 (stereo unspecified) | . | -45
O=S(=O)(c1ccc2[nH]c3c(c2c1)CCCC3)N1CCCCC1 | 2.5 | 11
NC(=O)CC(NC(=O)OCc1ccccc1)C(=O)O (stereo unspecified) | -2.6 | .
COCc1cc(C)nc(SCC(=O)NC23CC4CC(CC(C4)C2)C3)c1C#N | 1.7 | -17
Cc1cc(C)cc(-n2nnnc2SCC(=O)Nc2cccc(NC(=O)c3ccco3)c2)c1 | 1.7 | -1
COC(CNC(=O)c1cc2c(=O)n(C)c3ccccc3c2n1C)OC | -2.4 | -1
N#Cc1c(-c2cccs2)cc(-c2cccnc2)nc1N | . | 25
CCNC(=S)N1CCN=C1Nc1nc(C)cc(C)n1 | -1.0 | 9
Cc1[nH]c2ccccc2c1SCCNC(=O)c1cccc2ccccc12 | -0.6 | 12
CCOc1ccccc1/C=c1\s/c(=C(/C#N)C(N)=O)n(CCN2CCOCC2)c1=O | . | 29
CCCCS(=O)(=O)Nc1cc(C(C)(C)C)ccc1O | . | -490
Cc1cccc(NC(=O)c2ccccc2N)n1 | -6.5 | 12
CC(C)(C)/C(=N/O)c1cccs1 | 4.0 | .
COCCNC(=O)c1cnc(N2CCCC2)nc1 | . | -24
O=C(N1CCCCC1)C1(c2ccc(Cl)cc2)CCCC1 | 0.3 | -3
N#Cc1c(-c2ccc(F)cc2)noc1N | . | 0
CSc1ccc(/C=N/n2nnnc2Nc2ccccc2)cc1 | 0.3 | -19
O=C(NCCCN1CCCC1=O)c1ccc(N2CCCC2=O)cc1 | -1.4 | 13
CCO/C=C(\C#N)S(=O)(=O)C(C)C | -3.2 | .
CCn1c(C(=O)NCCC2=CCCCC2)cc2oc3ccccc3c21 | . | -21
CN1C(=O)CSc2ccc(NC(=O)N3CCN(c4ccccn4)CC3)cc21 | . | 1
CCOC(=O)c1ccc(N/N=C2/C(=O)C3(C)CCC2C3(C)C)cc1 (stereo unspecified) | . | 3
COc1cccc2sc(NC(=O)c3ccc(Br)cc3)nc12 | . | 20

Molecules above with a CF3 group (two):
canonical_smiles | MgrA DNA FP | Sa helicase inh
O=C(CSc1nc(=O)n(CCN2CCOCC2)c2c1CCCC2)Nc1cccc(C(F)(F)F)c1 | . | -15
FC(F)(F)c1nc2ccccc2nc1Cl | 3.1 | 17

An excerpt from above in order of their number in Sa helicase inh, descending:
SMILES	Sa helicase inh
CC(C)C(NC(=O)c1ccccc1)C(=O)Nc1nc2ccc(Cl)cc2s1 (stereo unspecified)	12
CCNC(=S)N1CCN=C1Nc1nc(C)cc(C)n1	9
CC(C)COC(=O)c1ccc2c(c1)C1C=CCC1C(c1ccc(Cl)cc1)N2 (stereo unspecified)	1
O=C1CCCc2c1cc(C(=O)N1CCOCC1)c(=O)n2-c1ccccc1	0
O=C(NC1CC1)c1cc(=O)[nH]c2ccc(Br)cc12	-1
Cc1cc(NC(=O)CCn2c(=O)sc3ccccc32)no1	-6
NC(=O)c1ccc(NC(=O)COC(=O)c2ccc(-n3cnnn3)cc2)cc1	-13

(list continues)
canonical_smiles | MgrA DNA FP | Sa helicase inh
Nc1c(C(=O)NCc2ccccn2)nnn1-c1ccc(OC(F)(F)F)cc1 | 0.9 | -8
O=C(NS(=O)(=O)c1ccc(Br)cc1)c1ccccc1 | 4.7 | -14
COC(=O)CCC(=O)Nc1cccc2ccccc12 | 2.0 | 18
Nc1cc(C(F)(F)F)ccc1-n1cncn1 | 0.3 | -8
NS(=O)(=O)c1ccc(CCNC(=O)NC2CC(=O)N(c3ccccc3)C2)cc1 (stereo unspecified) | . | -6
COc1cccc2cc(C(=O)N3CCCCC3)c(=O)oc12 | -1.4 | 9
Cn1cnc(S(=O)(=O)Nc2ccc(N3CCCCC3)cc2)c1 | -0.7 | .
CN(C)c1ccc(CN(C)C2CCCCC2)cc1 | -5.5 | 14
O=C(Cn1[nH]c(=O)c2ccccc2c1=O)OCN1C(=O)c2ccccc2C1=O | . | 21
CN(C)/C=C/S(=O)(=O)c1ccc(Cl)cc1 | 0.6 | .
CCOC(=O)C1=C(C)N=C2SCCC(=O)N2C1/C=C/c1ccccc1 (stereo unspecified) | . | 6
Cc1nc(C)c(-c2ccnc(N)n2)o1 | 3.2 | .
COc1ccccc1NC(=O)c1cccc(Cl)c1 | . | 20
COc1ccccc1CC(=O)Nc1ccc(-c2nc3ccccc3[nH]2)cc1 | 2.3 | 3
CN(CC(=O)O)C(=O)Nc1ccc(Cl)cc1Cl | -0.7 | -4
Fc1cccc(CN2CCN(C(=S)NCc3ccco3)CC2)c1 | 0.9 | 3
O=C(Cc1ccccc1Br)N(CCCN1CCOCC1)Cc1cccs1 | . | 6
Cc1ccc(C(C(=O)NC2CC2)N(C(=O)Cn2nnc(-c3cccs3)n2)c2cnc3ccccc3c2)o1 (stereo unspecified) | -0.5 | 2
CNC(=O)c1ccc(CN2CCc3ccccc3C2)cc1 | -1.2 | 1
O=C(OCC(=O)N1CCNC1=O)C1=COCCO1 | . | 8
CCn1c(=O)c(=O)[nH]c2cc(C(=O)Nc3nc4c(s3)CCCC4)ccc21 | . | -14
CCc1ccc(-c2cc(O)cc3sc(=O)oc23)cc1 | 0.2 | 8
O=C1CS/C(=N/S(=O)(=O)c2ccccc2)N1C1CCCCC1 | . | -5
CCCCc1ccc(NC(=O)NCCSCc2ccco2)cc1 | -2.2 | .
O=C(CNCCN1CCOCC1)Nc1ccc2c(c1)OCCO2 | . | -6
O=C(CCc1nc2ccccc2s1)NCc1cccs1 | . | 16
Clc1ccc(Nc2nc(NCCN3CCOCC3)nc(Nc3ccc(Cl)cc3)n2)cc1 | 1.1 | -2
C=CCSc1nnc(NC(=O)CSc2nc(C)cc(=O)[nH]2)s1 | 2.8 | -4
COc1ccc(-c2noc(N3CCC(C(=O)NCCCN4CCCCC4)CC3)n2)cc1 | . | -10
COc1ccc(S(=O)(=O)Nc2cncc(C(=O)NCc3ccc(C)cc3)c2)cc1 | 0.4 | 10

Six entries out of the list, ordered by molar mass, ascending.
canonical_smiles | MgrA DNA FP | Sa helicase inh
COc1ccccc1NC(=O)c1cccc(Cl)c1 | . | 20
CN(CC(=O)O)C(=O)Nc1ccc(Cl)cc1Cl | -0.7 | -4
CCOC(=O)C1=C(C)N=C2SCCC(=O)N2C1/C=C/c1ccccc1 (stereo unspecified) | . | 6
CCn1c(=O)c(=O)[nH]c2cc(C(=O)Nc3nc4c(s3)CCCC4)ccc21 | . | -14
COc1ccc(-c2noc(N3CCC(C(=O)NCCCN4CCCCC4)CC3)n2)cc1 | . | -10
Clc1ccc(Nc2nc(NCCN3CCOCC3)nc(Nc3ccc(Cl)cc3)n2)cc1 | 1.1 | -2

New compounds follow.
canonical_smiles | MgrA DNA FP | Sa helicase inh
CC(N=C1NS(=O)(=O)c2ccccc21)C(=O)OCc1ccccc1F (stereo unspecified) | . | -3
O=c1[nH]c(=S)[nH]c2ccccc12 | 4.5 | 16&-2
CCCn1cnc2cc(NCc3ccc(Cl)cc3Cl)ccc21 | 1.6 | 3
Cn1c(CNc2nc3ccccc3n2CCN2CCCCC2)nc2ccccc21 | . | 9
COc1ccc(CCNC(=O)CCCn2nc(C)n3ccnc3c2=O)cc1OC | . | 12
CC(=O)NC1C(=O)Nc2c1cccc2C(F)(F)F (stereo unspecified) | -1.5 | 5
COc1ccc(S(=O)(=O)N2CCN(C(=O)c3cc(C)oc3C)CC2)cc1 | . | -5
COCCN(C(=S)Nc1ccccc1C)C1CCN(C(C)C)CC1 | . | 8
CCOC(=O)C(Sc1n[nH]c(N)n1)c1ccccc1 (stereo unspecified) | . | 18
COc1cc2c(cc1OC)C(C)=NCC2 | -0.4 | .
CC(C)NC(=O)NNc1cc(N(C)C)c(C#N)c(N(C)C)n1 | . | -33
Cc1ccc2c(c1)-c1c(cnn1CC(=O)N(C)C1CCCCC1)CO2 | . | 8
Cc1c(C#N)c2ccccc2n1CC(=O)O | -1.8 | -2
COCc1cc(C)nc2sc(C(=O)N3CCC(C)CC3)c(N)c12 | . | 17
N#Cc1ccc(COC(=O)c2cnc3ncccn3c2=O)cc1 | . | 7
COc1ccccc1NC(=S)N=Nc1c(O)n(CN2CCN(c3ccccc3)CC2)c2ccccc12 | . | -1
CC(c1ccccc1)n1cc(C(=O)NCCN2CCCCCC2)nn1 (stereo unspecified) | 2.5 | 7
O=C(CSc1nccn(-c2cccc(F)c2)c1=O)NC1CCCCC1 | . | -12
N#Cc1ccc(C(=O)OCc2ccc(-c3cccc(Cl)c3Cl)o2)c(F)c1 | 0.1 | 14
C=C1C2(C(=O)Nc3nccs3)CCC(C2)C1(C)C (stereo unspecified) | -1.8 | 9
O=C(COC(=O)/C=C/c1ccccc1)NC1CCCc2ccccc21 (stereo unspecified) | 1.4 | -10
Nc1nc(-c2ccncc2)nc2sc3c(c12)CCCCC3 | 1.6 | .
CNC(=O)c1ccccc1SCCC(=O)O | -3.0 | .
CC(=O)Nc1ccc(NC(=O)c2ccccc2)cc1 | -0.5 | .
COc1ccc(C2OC(COc3ccccc3)CN(C(=O)c3ccccc3)O2)cc1OC (stereo unspecified) | 1.3 | -3
CC(=O)Nc1ccc(C(=O)CSc2nccn2C)cc1 | 0.0 | -13
Cc1ccn2c(NC3CCCCC3)c(C)nc2c1 | 1.3 | -5
COc1ccc(CNc2ccccc2C(=O)O)c(OC)c1OC | -1.8 | 4
O=C(O)CCC(=O)N1N=C2/C(=C/c3ccco3)CCCC2C1c1ccco1 (stereo unspecified) | . | 14
O=C(CC1C(=O)NCCN1C(=O)Nc1ccccc1)Nc1cc(Cl)ccc1Cl (stereo unspecified) | -1.1 | .
CCCCCSc1nnc(-c2ccc(Cl)cc2Cl)o1 | 3.6 | 15
O=C1c2ccccc2-c2onc3c(N4CCN(c5ccccc5)CC4)ccc1c23 | . | -57
Cc1cccc(NC(=O)CSCC(=O)Nc2ccc(S(N)(=O)=O)cc2)c1 | . | -2
CCC(Oc1ccc(F)cc1)C(=O)Nc1nonc1-c1ccccc1 (stereo unspecified) | . | -17
COc1ccc(Cc2nnc3n2N=C(C(C)(C)C)CS3)cc1 | . | -5
CC(C)NC(=O)Cn1ncc2c3ccccc3n(Cc3ccc(F)cc3)c2c1=O | . | -19
CCN1C(=O)CC(C(=O)NC)SC1=Nc1cc(Cl)c(O)c(Cl)c1 (stereo unspecified) | -0.9 | 1
Nc1ccc2nc(Cc3ccccc3)[nH]c2c1 | -3.2 | -9

This is a subset (hit frequency here may not be typical).
